PABP FP inh = blocks human PABP binding to poly(A) RNA | P11940 | fluorescence polarization | inhibition, % at 35 µM | actives 1% (n = 290,000) | AID 2014;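 active = 50% or more with normal probe brightness, or confirmed in later tests; inconclusive = above 50% with abnormal brightness, or retests that disagree; inactive = below 50% or failed in later tests; about a fifth of its hits are not listed in these tables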;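 note: calls also rest on retests at 20 µM and on dose response follow-up; controls were probe without protein and protein plus probe with vehicle; some compounds called inactive have numbers as strong as hits; many hits fall short of the cut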
Target sequence (P11940 whole entry, looked up): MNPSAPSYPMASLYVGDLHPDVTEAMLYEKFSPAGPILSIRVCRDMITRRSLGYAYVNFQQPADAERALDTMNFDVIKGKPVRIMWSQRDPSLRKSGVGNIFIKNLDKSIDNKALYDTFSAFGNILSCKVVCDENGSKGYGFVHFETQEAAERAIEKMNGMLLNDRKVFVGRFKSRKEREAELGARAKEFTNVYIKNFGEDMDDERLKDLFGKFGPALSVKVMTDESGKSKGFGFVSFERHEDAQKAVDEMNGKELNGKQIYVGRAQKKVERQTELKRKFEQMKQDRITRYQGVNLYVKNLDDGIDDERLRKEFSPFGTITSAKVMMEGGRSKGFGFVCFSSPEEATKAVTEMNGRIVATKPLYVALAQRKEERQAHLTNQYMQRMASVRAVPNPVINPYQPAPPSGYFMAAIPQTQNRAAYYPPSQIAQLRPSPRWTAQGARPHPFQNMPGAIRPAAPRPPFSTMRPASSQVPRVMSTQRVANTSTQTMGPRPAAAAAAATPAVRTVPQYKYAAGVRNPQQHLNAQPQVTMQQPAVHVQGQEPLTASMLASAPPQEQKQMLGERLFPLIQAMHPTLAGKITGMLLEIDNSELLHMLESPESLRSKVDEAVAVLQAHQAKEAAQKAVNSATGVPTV
Env fusion inh = HIV envelope-mediated fusion inhibition; HeLa-JRFL Env/CEM21 cell fusion, luciferase; inhibition, % at 12.3 µM; actives 1.1% (n = 360,000);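 active = mean replicate inhibition score of at least 50 and every replicate individually at or above 50; inconclusive = only one of the two criteria met; inactive = mean below 50 and not all replicates reaching 50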;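 note: 0% = plate neutral controls and 100% = maraviroc near 300 nM; one replicate is shown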
Rce1 inh = inhibitors of yeast Ras-converting enzyme; yeast membranes, quenched prenylated peptide cleavage fluorescence; calls only; actives 0.27% (n = 290,000); AID 2563;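 active = fall in fluorescence gain of 50% or more versus controls, with final raw signal at or below 3038400; inconclusive = same 50% fall but final raw signal above 3038400; inactive = fall in fluorescence gain under 50%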;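 note: plate controls were neutral control wells for no effect and wells lacking membranes for full effect; tested at 10 µM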
MT1-MMP act inh = inhibitors of human MT1-MMP activation; P50281; HT1080 RFP-PRO-GFP cells, GFP/RFP ratio fluorescence, overnight; percent of plate control window, DMSO zero; GFP/RFP ratio change, % at 20 µM; actives 0.061% (n = 360,000); AID 651647;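 active = GFP/RFP ratio change of at least 30% with cell ATP level not reduced by more than half and red fluorescence within 50% of control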; note: strong numbers were not always called active
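Assay system: HT1080 cells carrying an RFP-PRO-GFP reporter | Dosing: Single dose of 20 µM compound, 1% DMSO final | Incubation: Cells overnight before dosing, compound overnight, 37 °C, 5% CO2 | Evaluation: GFP/RFP fluorescence ratio | Control set: DMSO and RFP-L50D-GFP cell wells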
UUG fidelity = modulators of start codon recognition fidelity in yeast; S. cerevisiae UUG-firefly luciferase reporter, luminescence/redox ratio; activity score, % at 18.7 µM; actives 0.13% (n = 350,000); AID 602363;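 active = replicate mean at a twofold rise or more, about +100% in these data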;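 note: firefly luciferase made from a UUG start codon reports start codon fidelity; reporter light over untreated wells divided by growth signal over untreated wells; some hits fall short of that in this replicate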
CSC inhib = blocks cancer stem cells; cancer stem cell-like cells viability, luminescence; inhibition, % at 7.5 µM; actives 1.1% (n = 300,000);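 active = mean at 75% or more and at least half the replicates too; inconclusive = mean and replicates disagree; tested in HMLE shEcad cells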;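 note: 0% = median of negative and 100% = median of positive control wells; the first replicate is given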
eIF4H FP inh = inhibitors of RNA binding by human eIF4H | actives 0.94% (n = 290,000) | inhibition, % at 35 µM | Q15056 | eIF4H fluorescence polarization binding assay;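 active = 50% or more with normal probe brightness, or confirmed in later tests; inconclusive = above 50% with abnormal brightness, or retests that disagree; inactive = below 50% or failed in later tests; about a fifth of its hits are not listed in these tables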;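 note: calls also rest on retests at 20 µM and on dose response follow-up; 0% = protein and probe with vehicle and 100% = probe without protein; strong numbers were not always called active; many hits fall short of the cut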
eIF4H FP inh retest = recorded beside eIF4H FP inh, whose call it bears; inhibition, %; compound at 20 µM; confirmation average;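 mean of two retest wells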
PABP FP inh retest = second read-out of PABP FP inh, no call of its own (marks repeat the call); inhibition, %; compound at 20 µM; confirmation repeats;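 mean of two retest wells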
MT1-MMP act inh RFP = further read-out of MT1-MMP act inh, marked with its call; RFP signal change, %; measured here: RFP expression control read;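 0 = vehicle wells; hits needed this value within 50% of zero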
* hit, by the source's call; i = inactive; ? = inconclusive; . = no result given.

Start of the data: the first 3 compounds, to show the layout:
SMILES	PABP FP inh	Env fusion inh	Rce1 inh	MT1-MMP act inh	MT1-MMP act inh RFP	UUG fidelity	CSC inhib	eIF4H FP inh	others
CCOC(=O)c1cc2c(=O)n3ccccc3nc2n(C(C)C)c1=NC(=O)c1ccncc1	5	-5	i	-2	-1	-17	-7	-7
COc1ccccc1/C=C/C1(C(=O)NC2CCCC2)CC(=O)N1c1ccc(C)cc1 (stereo unspecified)	-4	-40	i	-16	-19	-9	.	-1
Cc1ccc(-c2noc(CCC(=O)Nc3ccc(C)cn3)n2)cc1	-9	.	i	-1	-2	-11	-2	-5

All compounds of this part, from the start:
SMILES	PABP FP inh	Env fusion inh	Rce1 inh	MT1-MMP act inh	MT1-MMP act inh RFP	UUG fidelity	CSC inhib	eIF4H FP inh	others
CCOC(=O)c1cc2c(=O)n3ccccc3nc2n(C(C)C)c1=NC(=O)c1ccncc1	5	-5	i	-2	-1	-17	-7	-7
COc1ccccc1/C=C/C1(C(=O)NC2CCCC2)CC(=O)N1c1ccc(C)cc1 (stereo unspecified)	-4	-40	i	-16	-19	-9	.	-1
Cc1ccc(-c2noc(CCC(=O)Nc3ccc(C)cn3)n2)cc1	-9	.	i	-1	-2	-11	-2	-5
Cc1cc(C)c2cc(C(=O)N3CCc4ccccc4C3)[nH]c2c1	2	13	i	7	-3	10	26	1
O=C(NCCOc1ccccc1)c1ccccc1SCC(=O)N1CCCC1	.	5	.	1	2	-15	-8	.
COCc1cc(SC2CCCCC2)nc(C)n1	8	3	i	2	2	.	-5	-14
COc1cc(C(=O)NCc2nnc(SCC(=O)Nc3ccc4c(c3)OCO4)o2)cc(OC)c1OC	-8	14	i	2	3	.	-2	-4
Cc1ccc(S(=O)(=O)Nc2cc(C(=O)NCCN(C)C)ccc2N2CCCCC2)cc1	-2	.	.	1	3	-5	1	4
O=C(Nc1cccc(Cl)c1)N(CCN1CCOCC1)Cc1cccc(Cl)c1	0	.	i	0	-4	-1	7	3
Cc1ccc(CNC(=O)CCn2c(=O)oc3ccccc32)cc1	1	-11	i	-2	-3	-14	-18	-14
CC1Cc2ccccc2N1C(=O)c1cnc2n(c1=O)CCS2 (stereo unspecified)	-2	2	i	4	6	-21	-10	-8
CCCCCC1CCC(c2ccc(C(N)=O)cc2)CC1 (stereo unspecified)	-2	.	i	0	1	-9	-3	3
Cc1ccc[n+](CC(=O)c2ccc(Cl)cc2)c1	6	9	i	-2	2	3	3	-10
CCOC(=O)CNc1nc(Cl)nc(Nc2ccc(OC)cc2OC)n1	-8	5	i	-1	-1	-30	2	-10
O=C1C=C(Nc2cccc3cccnc23)c2ccccc2C1=O	38	-74	i	-8	11	-13	58	12
COC(=O)C(NC(C)=O)(Nc1cccc(C)n1)C(F)(F)F (stereo unspecified)	32	-1	i	0	3	.	-12	34
O=C(Nc1ccnn1C1CCN(C2CCC2)CC1)c1cccc(F)c1	-2	1	i	0	1	-3	-7	-2
CCOc1ccc(NC(=O)CN2C(=O)NC3(CCCC3)C2=O)cc1S(=O)(=O)N1CCCCC1	.	5	.	0	0	16	.	.
O=S(=O)(c1ccc(Cl)cc1)N(Cc1ccccn1)Cc1ccccn1	9	12	i	1	0	7	.	-13
CCOc1ccccc1N1CCN(C(=O)C2=CC=CN3CCS(=O)(=O)N=C23)CC1	.	-4	.	-1	2	-4	-17	.
COc1ccc(CNC(=O)Nc2nc(C(N)c3ccccc3)cs2)cc1 (stereo unspecified)	.	5	.	-5	-3	-7	.	.
O=C(Nc1ccc(NS(=O)(=O)c2ccccc2)cc1)c1ccccc1Cl	.	-5	.	1	-2	4	-9	.
COCC(=O)Nc1ccc(C(C)C)cc1	0	.	i	10	4	-15	0	-2
O=C(Cc1cccc(NC(=O)C2CCN(C(=O)c3ccccc3)CC2)c1)Nc1cccc(C(=O)N2CCOCC2)c1	.	-16	.	4	5	-14	.	.
COc1ccc(CNCc2ccc3c(c2)OCO3)cc1Br	-9	9	i	-3	-3	-9	-2	0
COc1cc(CC2C(=O)Nc3ccccc32)cc(C)c1O (stereo unspecified)	11	-4	i	-1	3	-6	.	2
O=C(c1ccccc1)c1ccc2nc(-c3ccc(NC(=O)c4ccccc4Br)cc3)[nH]c2c1	-8	.	i	0	-3	-14	.	-11
O=C(CCSc1nc2ccccc2o1)N1CCOCC1	12	.	i	-7	7	-6	-19	27
O=C(/C=C/c1ccco1)Nc1ccc2c(c1)OCO2	14	-88	i	0	1	.	.	8
COc1cc(CN(C(=S)NCC(=O)NC2CCCC2)C2CCCC2)cc(OC)c1OC	2	-60	i	-3	1	-2	4	-13
NC1=NC[C@H](Cc2ccccc2)N1CCc1cccc(F)c1	-5	-9	i	1	4	0	-11	-3
CC(C)CC(=O)N1CCN(S(=O)(=O)c2ccc3ccccc3c2)CC1	2	46	i	-3	-11	-11	-10	5
COCCOC(=O)C1=C(C)NC2=C(C(=O)CC(C)(C)C2)C1c1ccc(N(C)C)cc1 (stereo unspecified)	7	.	.	-4	3	0	-15	-1
OC(CN1CCN(c2ccccc2)CC1)Cn1c2ccccc2c2ccccc21 (stereo unspecified)	-19	.	i	2	1	8	-11	-1
C=CCN(C(=O)CCC(=O)Nc1cc(C)on1)C(C(=O)NC(C)(C)C)c1cccc(OC)c1OC (stereo unspecified)	1	-56	i	1	2	.	-14	-6
O=C(NCc1ccncc1)Nc1ccc(Cc2ccc(NC(=O)NCc3ccncc3)cc2)cc1	.	-2	.	1	-10	-5	.	.
O=C(Cc1cccs1)NCc1ccc2c(c1)OCO2	8	?	i	-4	-2	-6	-8	-4
CC(=O)Nc1ccc(S(=O)(=O)NCCC(=O)N2CCCCC2)cc1	.	-3	i	-1	0	.	-3	.
CCOc1ccc(C(=O)NC(=S)Nc2ccc(NC(=O)c3ccco3)c(C)c2)cc1[N+](=O)[O-]	3	-32	i	5	1	.	4	-3
C[C@H]1[C@H](C)CC[C@]2(C)CC[C@]3(C)C(=CC[C@@H]4[C@@]5(C)CC[C@@H](O)[C@](C)(C(=O)O)[C@@H]5CC[C@]43C)[C@H]12	13	.	i	.	.	.	77*	18

Entries above with bromine (2):
SMILES	PABP FP inh	Env fusion inh	Rce1 inh	MT1-MMP act inh	MT1-MMP act inh RFP	UUG fidelity	CSC inhib	eIF4H FP inh	others
COc1ccc(CNCc2ccc3c(c2)OCO3)cc1Br	-9	9	i	-3	-3	-9	-2	0
O=C(c1ccccc1)c1ccc2nc(-c3ccc(NC(=O)c4ccccc4Br)cc3)[nH]c2c1	-8	.	i	0	-3	-14	.	-11

Later entries
SMILES	PABP FP inh	Env fusion inh	Rce1 inh	MT1-MMP act inh	MT1-MMP act inh RFP	UUG fidelity	CSC inhib	eIF4H FP inh	others
C[C@H]1C=C(C(=O)N2CCOCC2)O[C@@H](OCc2ccc(CO)cc2)C1	1	-10	i	0	0	16	-5	1
Cn1ncc2c(Nc3ccc4ccccc4c3)ncnc21	1	.	i	-2	1	-10	-15	-2
O=C(N/C(=C/c1cccnc1)C(=O)N1CCOCC1)c1ccccc1F	-10	-9	i	2	0	.	4	-8
CCc1ccc(CNC(=O)Cn2nc(-c3ccc(C)cc3)ccc2=O)cc1	-4	.	i	.	.	.	-1	6
CCOc1ccc2oc(C(=O)OCC(=O)NCC3CCCO3)c(C)c2c1 (stereo unspecified)	.	-2	.	2	2	1	.	.
Cc1ccc(S(=O)(=O)NCc2ccccc2)cc1C(=O)NCc1ccncc1	.	14	.	2	8	-10	.	.
CCOC(=O)C(=O)Nc1sc(C(=O)N2CCOCC2)c(C)c1C#N	14	12	i	-2	1	.	-12	4
O=C(OCC(=O)C12CC3CC(CC(C3)C1)C2)c1cnccn1	-3	.	i	.	.	-4	.	2
O=C(O)C1Sc2[nH]c(=O)sc2C2c3cc(Cl)ccc3OC(=O)C12 (stereo unspecified)	74*	-4	i	-29	17	-19	-2	14	eIF4H FP inh retest=30;PABP FP inh retest=53*
COc1ccc(CC(N)c2csc(Nc3cc(NCc4ccco4)ncn3)n2)cc1 (stereo unspecified)	.	-3	.	1	-2	-17	.	.
O=C(O)C1CCCCC1C(=O)Nc1ccccc1Nc1ccccc1 (stereo unspecified)	20	.	i	-2	1	.	-4	4
CN(C)CCCNC(=O)COc1ccc(Br)cc1Cl	-12	-18	i	8	7	.	5	-10
Cc1cccc(NC(=O)c2cc(-c3ccco3)nc3ccccc23)n1	48	.	i	6	2	.	8	6
Cc1nn(-c2ccccc2)c(C)c1NC(=O)COc1cc(F)ccc1[N+](=O)[O-]	.	2	.	-1	-11	-9	-9	.
CC[N+](CC)(CCO)CCCN1C(=O)C2CC=C(Cl)CC2C1=O (stereo unspecified)	-2	.	i	.	.	.	-6	-1
CC1CN(S(=O)(=O)c2ccc(C(=O)Nc3ccc(S(=O)(=O)Nc4nccs4)cc3)cc2)CC(C)O1 (stereo unspecified)	-1	-5	i	2	6	.	-8	-11
CSc1nc(=O)[nH]nc1Sc1ccccc1	.	1	.	4	1	-14	.	.
COc1ccc(/C=C(/C(=O)NCc2ccccc2)c2ccccc2)cc1	4	23	i	-3	-4	.	-4	1
CC(=O)c1c(C)[nH]c(C(=O)CSc2nc3ccc(C)cc3[nH]2)c1C	-5	.	i	-6	-11	68	.	8
COc1ccc2cc(-c3ccccc3F)ncc2c1	.	-230	.	5	4	-11	6	.
O=C(c1ccc2c3c(cccc13)CC2)C1CCCN(C(=O)c2cccnc2)C1 (stereo unspecified)	5	29	i	2	-3	.	-1	-10
CCOP(=O)(OCC)c1nc(/C=C/c2ccccc2)oc1NCc1ccccc1	-2	-46	i	-7	-11	4	1	8
COc1ccccc1C(=O)Nc1sc2c(c1C#N)CCC2	16	.	i	-3	2	5	-7	-3
COc1ccc(-c2cn3cccnc3n2)cc1NC(=O)C(C)C	-12	-19	i	-3	0	-13	-7	-3
Cc1nnc(Nc2ccc(Cl)c(C(F)(F)F)c2)[nH]c1=O	-15	-7	.	-1	-4	.	-10	-3
COC(=O)CCC(NC(=O)OCc1ccccc1)C(=O)NC(CC(C)C)C(=O)OC (stereo unspecified)	-4	-64	i	0	0	.	4	-4
COc1ccc(N(CC(=O)Nc2cccc(OC)c2)S(=O)(=O)c2c(C)nn(C)c2C)cc1	-4	-87	.	-4	-3	-11	.	1
O=C1CCCN1c1ccc(S(=O)(=O)N2CCN(c3ccccn3)CC2)cc1	-4	29	i	8	-8	-4	-7	-5

Pulled by compound from above:
SMILES	PABP FP inh	Env fusion inh	Rce1 inh	MT1-MMP act inh	MT1-MMP act inh RFP	UUG fidelity	CSC inhib	eIF4H FP inh	others
O=C(c1ccc2c3c(cccc13)CC2)C1CCCN(C(=O)c2cccnc2)C1 (stereo unspecified)	5	29	i	2	-3	.	-1	-10
COc1ccc(N(CC(=O)Nc2cccc(OC)c2)S(=O)(=O)c2c(C)nn(C)c2C)cc1	-4	-87	.	-4	-3	-11	.	1
Cc1nnc(Nc2ccc(Cl)c(C(F)(F)F)c2)[nH]c1=O	-15	-7	.	-1	-4	.	-10	-3
CCOP(=O)(OCC)c1nc(/C=C/c2ccccc2)oc1NCc1ccccc1	-2	-46	i	-7	-11	4	1	8

Screening results as filed in PubChem BioAssay.
